Yeast UUG start: modulators of yeast start codon fidelity, primary screen, whole organism, S. cerevisiae, single point, plate reader | S. cerevisiae UUG-firefly luciferase reporter, luminescence/redox ratio | 350,000 tested, 0.13% active | AID 602363, 2012 | activity score, % at 18.7 µM;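 active = replicate mean at a twofold rise or more, about +100% in these data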;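 note: firefly luciferase made from a UUG start codon reports start codon fidelity; reporter light over untreated wells divided by growth signal over untreated wells; some hits fall short of that in this replicate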
Rce1 inh: yeast Rce1p protease inhibitors, primary screen, biochemical, fluorescence, cell-free homogeneous | CAAX prenyl protease 2 (Saccharomyces cerevisiae (strain ATCC 204508 / S288c)), Q03530 | yeast membranes, quenched prenylated peptide cleavage fluorescence | calls only | 290,000 tested, 0.27% active | AID 2563, 2010;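 active = fall in fluorescence gain of 50% or more versus controls, with final raw signal at or below 3038400; inconclusive = same 50% fall but final raw signal above 3038400; inactive = fall in fluorescence gain under 50%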;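 note: plate controls were neutral control wells for no effect and wells lacking membranes for full effect; tested at 10 µM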
Target sequence (Q03530 whole entry, looked up): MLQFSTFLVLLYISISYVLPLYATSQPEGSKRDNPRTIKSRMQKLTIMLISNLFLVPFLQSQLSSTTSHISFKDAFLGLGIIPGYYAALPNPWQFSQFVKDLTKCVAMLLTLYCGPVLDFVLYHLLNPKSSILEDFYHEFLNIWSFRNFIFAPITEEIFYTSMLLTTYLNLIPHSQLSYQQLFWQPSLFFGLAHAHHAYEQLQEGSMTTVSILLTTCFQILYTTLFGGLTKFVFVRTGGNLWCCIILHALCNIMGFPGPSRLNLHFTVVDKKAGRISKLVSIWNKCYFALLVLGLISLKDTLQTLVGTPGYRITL
PABP FP inh: PABP poly(A) RNA binding inhibitors, primary screen, biochemical, fluorescence polarization, uHTS; inhibition, % at 35 µM; AID 2014, 2009; Polyadenylate-binding protein 1 (Homo sapiens), P11940; 290,000 tested, 1% active;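 active = 50% or more with normal probe brightness, or confirmed in later tests; inconclusive = above 50% with abnormal brightness, or retests that disagree; inactive = below 50% or failed in later tests; about a fifth of its hits are not listed in these tables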;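 note: calls also rest on retests at 20 µM and on dose response follow-up; controls were probe without protein and protein plus probe with vehicle; some compounds called inactive have numbers as strong as hits; many hits fall short of the cut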
Env fusion inh: inhibitors of HIV-1 Env-driven cell-cell fusion, primary screen, HeLa-JRFL effector, CEM21 target cells, luciferase | inhibition, % at 12.3 µM | 360,000 tested, 1.1% active | AID 651610, 2012;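 active = mean replicate inhibition score of at least 50 and every replicate individually at or above 50; inconclusive = only one of the two criteria met; inactive = mean below 50 and not all replicates reaching 50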;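 note: 0% = plate neutral controls and 100% = maraviroc near 300 nM; one replicate is shown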
eIF4H FP inh: human eIF4H binding inhibitors, primary screen, translation initiation inhibitor project, biochemical, uHTS, fluorescence polarization. Eukaryotic translation initiation factor 4H (Homo sapiens), Q15056. eIF4H fluorescence polarization binding assay. inhibition, % at 35 µM. 290,000 tested, 0.94% active;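 active = 50% or more with normal probe brightness, or confirmed in later tests; inconclusive = above 50% with abnormal brightness, or retests that disagree; inactive = below 50% or failed in later tests; about a fifth of its hits are not listed in these tables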;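 note: calls also rest on retests at 20 µM and on dose response follow-up; 0% = protein and probe with vehicle and 100% = probe without protein; strong numbers were not always called active; many hits fall short of the cut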
MT1-MMP act inh: blockers of MT1-MMP proenzyme processing, primary screen, HT1080 RFP-PRO-GFP cells, GFP/RFP fluorescence | Matrix metalloproteinase-14 (Homo sapiens), P50281 | AID 651647, 2012 | GFP/RFP ratio fluorescence, overnight; percent of plate control window, DMSO zero | GFP/RFP ratio change, % at 20 µM | 360,000 tested, 0.061% active;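 active = GFP/RFP ratio change of at least 30% with cell ATP level not reduced by more than half and red fluorescence within 50% of control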; note: strong numbers were not always called active
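Test system: HT1080 RFP-PRO-GFP cells; Benchmarks: DMSO and RFP-L50D-GFP cell wells; Timing: cells overnight before dosing, compound overnight, 37 °C, 5% CO2; Compound: one 20 µM compound dose with 1% DMSO; Read-out: GFP/RFP fluorescence ratio.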
CSC inhib: cancer stem cell viability inhibitors, primary screen, luminescence; cancer stem cell-like cells viability; inhibition, % at 7.5 µM; 300,000 tested, 1.1% active; AID 2717, 2010;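 active = mean at 75% or more and at least half the replicates too; inconclusive = mean and replicates disagree; tested in HMLE shEcad cells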;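 note: 0% = median of negative and 100% = median of positive control wells; the first replicate is given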
MT1-MMP act inh RFP: recorded beside MT1-MMP act inh, whose call it bears; RFP signal change, %; measured here: RFP expression control read;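 0 = vehicle wells; hits needed this value within 50% of zero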
The depositor's hits bear a star; i = inactive; ? = inconclusive; / = not tested or not shown. This is a subset; count on the stated rates, not on these rows.

SMILES	Yeast UUG start	Rce1 inh	PABP FP inh	Env fusion inh	eIF4H FP inh	MT1-MMP act inh	MT1-MMP act inh RFP	CSC inhib
Cc1ccc(-c2ccc(CN3C(CC(C)C)C(=O)N(Cc4cn(CC5CCCCC5)nn4)CCS3(=O)=O)cc2)cc1 (centres undefined)	-20	/	/	6	/	0	0	/
COc1cc2c(cc1NC(=O)c1cccnc1)CCCC2	-6	i	0	-64	-7	-7	3	17
CC1(C)CC(=O)C=C(NNC(=O)c2ccccc2O)C1	-31	i	-9	-109	-12	-4	10	/
O=S(=O)(NCCc1ccccc1)c1cccc2nsnc12	-8	i	-12	/	-3	0	-1	-29
COc1ccc(NC(=O)CN2CCN(CC(=O)Nc3ccccc3Cl)CC2)cc1	-22	i	-13	/	-1	-4	-6	2
COc1ccc(Br)cc1S(=O)(=O)NNC(=O)c1c(C)nc2ccccn12	/	i	-3	10	5	1	-4	1
CC1=CC2=NC(=O)/C(=C\c3cc(C)n(-c4ccc(F)cc4)c3C)C(=N)N2O1	/	i	?	14	46	-5	2	-11
NN1C(=O)/C(=C\c2ccco2)SC1=S	-14	i	91*	6	106*	0	3	-14
COc1ccccc1NC(=O)Cc1noc(CSc2nnc(C(F)(F)F)n2C)n1	/	i	-11	7	17	-2	7	-7
CCN(C[C@H]1N[C@@](CC)(C(=O)OC)[C@H]2C(=O)N(Cc3ccccc3)C(=O)[C@@H]12)C(=O)NC(C)C	-32	/	/	0	/	1	6	/
C=C(C)C1CC=C(CN2CCC(O)CC2)CC1 (centres undefined)	-15	i	17	/	4	5	0	33
Nc1nc(NCc2ccco2)nc(N2CCOCC2)c1[N+](=O)[O-]	/	i	3	6	3	6	-6	22
COCCNC(=O)/C(C#N)=C/c1ccc(O)cc1	/	i	0	-20	-1	4	2	16
CCOc1ccccc1CN1CCN(Cc2cccc3c2OCO3)CC1CCO (centres undefined)	/	i	-2	-13	5	-1	9	-6
O=C1NCCN1c1ncc([N+](=O)[O-])s1	14	/	/	15	/	3	3	-5
Cc1ccc(CN(Cc2ccco2)C(=S)NCC(=O)NCc2cccnc2)cc1	/	i	6	-4	-3	-1	-5	-1
COC(=O)c1ccc(NC(=S)Nc2cccc(C)n2)cc1	/	i	16	5	8	1	-5	5
O=C(CCN1C(=O)/C(=C/c2cccc(Br)c2)SC1=S)NNC(=O)c1cccnc1	-12	i	-4	/	-8	4	-2	-4
Nc1nonc1-n1nnc(C(=O)N/N=C/c2ccccc2O)c1CN1CCCC1	-10	i	/	13	/	9	1	62
COC(CNC(=O)c1ccc2c(c1)ncn2-c1cc(C)cc(C)c1)OC	-6	i	-5	-20	-4	1	0	-5
CCOc1ccc(C(=O)CSCC(=O)O)cc1	-11	i	5	5	-10	2	6	-15
COc1cccc2c(N/N=C/c3ccc(O)c(O)c3)cc(C)nc12	-21	i	12	-26	1	2	0	-8
COc1ccc(C(=O)CSc2nnc(-c3ccco3)o2)cc1	/	i	-3	4	-13	4	8	2
O=C(O)c1nn(-c2ccc(F)cc2)ccc1=O	-14	i	3	-6	3	3	3	11
CCOc1ccc(OCCOCCN2CCOCC2)cc1	1	i	-3	-18	34	1	3	-1

(list continues)
SMILES	Yeast UUG start	Rce1 inh	PABP FP inh	Env fusion inh	eIF4H FP inh	MT1-MMP act inh	MT1-MMP act inh RFP	CSC inhib
O=c1[nH]c(C2CCCN(S(=O)(=O)c3ccccc3Cl)C2)nc2c1nnn2Cc1ccc2c(c1)OCCO2 (centres undefined)	-25	i	/	11	/	-2	-2	13
O=c1cc(CN2CCN(c3ccc(F)cc3)CC2)c2cc3c(cc2o1)CCCC3	-7	i	1	13	-9	4	3	-18
O=C(CC1C(=O)NCCN1Cc1ccccc1C(F)(F)F)NC1CCCCC1 (centres undefined)	-4	i	19	-4	2	7	5	-9
Cc1cc(C)c(S(=O)(=O)Nc2ccc(N3CCOCC3)cc2)c(C)c1	-1	i	6	-20	0	-2	-3	14
Cc1cccc(OCCCN2CCOCC2)c1C	-7	i	-2	6	5	4	9	-13
N#CCCSc1ccccc1NC(=O)c1cc(=O)c2ccccc2o1	-21	i	-2	19	-6	-7	-1	11
CN1C(=O)CS/C1=N\NC(=O)COc1cccc2cccnc12	/	i	-3	8	1	-4	0	1
CCOC(=O)c1ccccc1-n1nnnc1C	/	i	-4	-4	-2	-2	-1	-13
Cc1ccc(N(CC(=O)Nc2cc(Cl)ccc2Oc2ccccc2)S(C)(=O)=O)c(C)c1	-40	i	-4	/	4	-3	-5	41
COc1ccc2nc(NC(=O)c3cccc(OCc4c(C)noc4C)c3)sc2c1	-18	i	-8	-477	2	-4	-24	69
Cc1ccc(NC(=O)COC(=O)C2CC2C)c(S(=O)(=O)N2CCCCC2)c1 (centres undefined)	6	i	5	/	-2	-6	-2	-3
O=C(NNS(=O)(=O)c1ccc(C(=O)NC2CCCC2)cc1)c1ccncc1	-12	i	-5	0	8	1	-1	-12
O=c1[nH]n2c(-c3ccccc3)nc(O)c2c2ccccc12	/	i	-1	-10	2	3	2	-14
CC1CC(C)CN(C(=O)COC(=O)C2CCN(S(=O)(=O)c3c(Cl)cccc3Cl)CC2)C1 (centres undefined)	/	i	/	/	/	3	3	-13
O=C(/C=C/c1cn(-c2ccccc2)nc1-c1ccc2c(c1)OCCO2)NCCO	/	i	-6	12	2	-1	5	9
Cc1csc(NC(=O)c2cc3c(s2)CCC3)n1	-36	i	-5	/	0	-21	-22	30
Cc1cc(N2CCN(C(=O)c3ccco3)CC2)n2ncnc2n1	/	i	3	-29	1	2	4	-6
COc1ccc(-c2c(N)n[nH]c2C)cc1OC	/	i	4	1	-1	0	3	-5
CS(=O)(=O)N(CC(=O)N1CCN(Cc2ccc3c(c2)OCO3)CC1)Cc1ccc(Cl)cc1	-12	i	0	45	-5	0	-15	-8
Cc1cc(C)n2nc(SCc3nnc(SCc4ccccc4Cl)s3)nc2n1	-16	i	-2	11	5	10	-4	/
Cc1ccccc1OCC(=O)Nc1ccc(S(=O)(=O)Nc2ccccn2)cc1	-18	i	3	4	-10	0	4	1
CCC(=O)Nc1ccc(N2CCN(C(=O)c3ccco3)CC2)c(Cl)c1	-3	i	1	/	-10	-1	4	/
O=C(c1ccc2nc(Cc3ccccc3F)oc2c1)N1CC[C@H](O)C1	2	i	-2	-38	-3	2	3	5
COc1ccc(C2C(C(C)=O)=C(O)C(=O)N2CCCn2ccnc2)cc1OC (centres undefined)	-15	i	2	/	-7	2	2	-21
O=C(CCNC(=O)C1CCN(S(=O)(=O)c2ccc(F)cc2)CC1)NCc1ccccc1	0	i	/	0	/	-2	1	-11

Remaining list, next part
SMILES	Yeast UUG start	Rce1 inh	PABP FP inh	Env fusion inh	eIF4H FP inh	MT1-MMP act inh	MT1-MMP act inh RFP	CSC inhib
O=C(O)CSc1nnc(CNc2ccc(Cl)cc2)n1Cc1ccccc1	/	i	6	-3	7	5	7	11
COc1ccc(C2CC3(CC(C)(C)NC(=S)N3)Oc3cc(O)cc(C)c32)cc1OC (centres undefined)	/	i	-3	-96	-5	-3	0	-7
O=C(NCCc1c[nH]c2ccccc12)C(=O)NCC1OCCN1S(=O)(=O)c1ccccc1 (centres undefined)	/	i	-4	14	2	3	-3	-12
CCCCSc1nc2c(cnn2-c2ccc(C)c(C)c2)c(=O)[nH]1	-24	i	1	-26	-4	1	-2	-8
CN(C)C(=O)N1CCC(C(=O)NC2CCCCCCC2)CC1	-5	i	2	/	-7	-2	-2	-11
O=C(Nc1ccn(Cc2ccccc2)n1)c1n[nH]c([N+](=O)[O-])c1Cl	/	i	0	13	6	-1	-3	13
COc1ccc(NC(=O)CNC(=O)Cn2ccc3ccccc3c2=O)c(OC)c1	-11	i	2	-4	-16	7	-1	-30
O=C(CCC1CCCC1)NCc1cccs1	-11	/	7	/	12	-7	-1	5
O=C1NC(=O)N(c2ccccc2)C1=O	-20	i	6	-9	-1	0	2	/
CC(=O)c1cc2c(cc1NC(=O)CCn1cnnn1)OCO2	/	i	7	-8	-11	-1	2	-6
CC1(C)CC(NC(=S)NCc2ccc3c(c2)OCO3)CC(C)(C)N1	/	i	-11	/	3	/	/	-5
CC(=O)Nc1ccc(/C(C)=N/NC(=O)c2ccccc2Cl)cc1	-15	i	-16	8	-9	6	7	-7
CC1(C(=O)NCc2ccccc2)CCC(=O)N1CCOc1ccccc1 (centres undefined)	-13	/	/	-16	/	2	5	/
COc1ccc(OC)c(C2=NOC(C(=O)Nc3c(C)n(C)n(-c4ccccc4)c3=O)C2)c1 (centres undefined)	2	i	4	2	13	2	0	-13
COc1ccc(-c2coc3cc(O)ccc3c2=O)cc1	-21	i	/	-109	/	-1	2	-2
COc1ccc(-n2c(CNC(=O)c3cc(OC)c(OC)c(OC)c3)n[nH]c2=S)cc1	-12	i	6	-18	8	3	1	-11
COC(=O)C(C)Oc1cc(C)ccc1COc1ccc(-n2nc(C)n(C(F)F)c2=O)cc1 (centres undefined)	7	i	/	6	/	5	2	/
O=c1oc2cc(O)ccc2c2c1CCCC2	-15	i	-4	-131	-4	3	4	0
CN(CC(=O)Nc1ccc(OC(F)(F)F)cc1)C(=O)/C=C/c1ccco1	-6	/	/	3	/	1	2	0
Cc1nonc1NC(=O)OC1CCCCC1	-15	i	-12	/	5	0	1	-17
OCCNc1cnc2ccccc2n1	-11	i	2	-29	-9	2	3	-8
O=C(Nc1nnc(C2CCCCC2)s1)c1ccco1	-2	i	8	/	6	3	-2	6
O=C(CC1OC(=O)c2ccccc21)c1ccco1 (centres undefined)	-18	i	-2	7	-11	-3	-5	-1
O=c1cnnc(N/N=C/c2c[nH]c3ccccc23)[nH]1	-20	i	-10	-1	6	-5	2	8
O=C1C2CCCCC2C(=O)N1c1nccs1 (centres undefined)	-25	i	-6	-30	-4	3	6	-6

(further entries)
SMILES	Yeast UUG start	Rce1 inh	PABP FP inh	Env fusion inh	eIF4H FP inh	MT1-MMP act inh	MT1-MMP act inh RFP	CSC inhib
Cc1ccc(Nc2cc(=O)n(C3CCCCC3)c(=O)[nH]2)cc1C	/	i	-10	/	-3	-2	-13	-11
CCNC(=S)N/N=C/c1cccs1	13	i	-4	-151	-4	-2	-1	-6
Cc1[nH]c(=O)nc(SCc2cccc(Cl)c2)c1C#N	-10	i	1	-6	-5	-3	1	11
COc1ccc(CC(=O)N/N=C\c2cc(Br)c(O)c(Br)c2)cc1	-23	i	11	18	-3	6	1	-3
O=C(COC(=O)c1ccc(F)c(S(=O)(=O)N2CCOCC2)c1)NC1CCCCC1	-16	/	/	/	/	-2	7	-17
COc1cc2nc(C3CCC3)n(NC(=O)COc3ccccc3)c(=O)c2cc1OC	-5	i	4	-30	-7	1	-1	2
O=C(c1ccco1)N1CCN(C(=O)c2ccc(-c3ccc([N+](=O)[O-])cc3)o2)CC1	-11	/	/	/	/	4	-2	-19
O=C(Nc1nnc(C23CC4CC(CC(C4)C2)C3)s1)c1ccco1	-13	i	-5	-22	-2	-6	-7	-5
